Mtb betalactam: beta-lactam sensitization of Mtb H37Rv. M. tuberculosis H37Rv growth with meropenem, percent inhibition; hits of this screen are not shown here. actives 0.27% (n = 330,000). inhibition, % at 25 µM;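 active means about 74% or more and at least 40 points above the plate without the antibiotic, then above 30% in a dose series; inconclusive means first-round hits that could not be retested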;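 further: growth measured after seven days incubation then overnight dye step; 0% = bacteria only wells and 100% = bacteria with antibiotic; twin plates without the antibiotic show which effects depend on it; some results filed as inactive read as strong as hits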
YopH inh: blocks Yersinia enterocolitica YopH tyrosine phosphatase; inhibition, %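 (about 10 µM by stock and volumes)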; fluorescence Ex485/Em525; actives 0.16% (n = 140,000);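 active means inhibition of 50% or more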;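 further: controls were vehicle for no effect and minimum signal wells for full effect; inactives centre near -20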
RecA splice inh: blocks M. tuberculosis RecA intein splicing; cell-free RecA intein splicing, fluorescence; inhibition, %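 (about 9 µM by stock and volumes)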; actives 0.75% (n = 290,000); AID 2221; in the data active means inhibition above about 30%; inconclusive means no clear call, values can overlap the other calls;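 further: 0% = vehicle wells and 100% = reference inhibitor control wells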
Target sequence (P9WHJ3 whole entry, looked up, canonical isoform): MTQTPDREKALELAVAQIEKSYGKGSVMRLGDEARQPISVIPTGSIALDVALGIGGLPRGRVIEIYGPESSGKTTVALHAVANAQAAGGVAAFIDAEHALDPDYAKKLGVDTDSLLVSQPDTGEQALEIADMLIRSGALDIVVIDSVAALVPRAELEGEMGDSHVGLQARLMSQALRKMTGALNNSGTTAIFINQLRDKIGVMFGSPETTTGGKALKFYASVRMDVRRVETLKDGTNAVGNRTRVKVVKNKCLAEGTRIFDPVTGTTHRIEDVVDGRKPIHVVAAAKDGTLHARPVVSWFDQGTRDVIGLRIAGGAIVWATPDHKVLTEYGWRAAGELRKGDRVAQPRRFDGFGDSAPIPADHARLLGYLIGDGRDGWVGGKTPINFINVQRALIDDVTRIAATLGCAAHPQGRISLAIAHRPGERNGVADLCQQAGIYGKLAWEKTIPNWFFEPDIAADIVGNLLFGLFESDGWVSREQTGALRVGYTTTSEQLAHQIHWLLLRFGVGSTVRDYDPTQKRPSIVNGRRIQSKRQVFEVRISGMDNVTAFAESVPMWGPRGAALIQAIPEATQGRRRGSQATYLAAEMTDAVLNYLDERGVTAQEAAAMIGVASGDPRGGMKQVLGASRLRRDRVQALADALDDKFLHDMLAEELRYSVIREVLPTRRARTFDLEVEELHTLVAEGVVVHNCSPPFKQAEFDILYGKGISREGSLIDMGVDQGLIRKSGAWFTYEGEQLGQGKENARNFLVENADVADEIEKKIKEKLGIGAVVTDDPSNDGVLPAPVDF
Arbovirus inh: blocks arbovirus infection | arbovirus infection cell-based antiviral screen | inhibition, % at 10 µM | actives 0.37% (n = 200,000);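 active means inhibition from about 30%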;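 further: bluetongue infection of BSR cells; cell survival read as ATP light after 72 h; 0% = infected wells without compound and 100% = uninfected wells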
Mtb H37Rv: M. tuberculosis H37Rv growth inhibitors, H37Rv strain (AID 1626); M. tuberculosis H37Rv growth inhibition; higher % means a stronger effect; inhibition, % at 10 µM, or IC50 in µM where a hit was titrated; actives 0.95% (n = 220,000);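 active means confirmed in a dose series; inconclusive means inhibition above 80% but not taken into the dose series; inactive means below 80% or under 30% at every dose of the series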;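 further: bacteria incubated seven days before Alamar blue readout; 0% = bacteria only wells and 100% = bacteria with antibiotic wells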
Arbovirus inh repeat: also measured in Arbovirus inh; calls as there; inhibition, %; measured here: 10K subset replicate screen; many hits read low in the repeat;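 first of two repeat runs on a subset; 0% = infected and 100% = uninfected wells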
Numbers without * were called inactive; ? = inconclusive; . = not tested or not shown. A portion of the library (hit frequency here may not be typical).

SMILES | Mtb betalactam | YopH inh | RecA splice inh | Arbovirus inh | Mtb H37Rv | others
COc1ccc(C(C(=O)NC2CCCC2)N(C(=O)c2snc(-c3ccc(F)cc3)c2N)c2cccc(F)c2)cc1 (stereo not drawn) | 36 | -34 | 0.9 | -10 | 0%
CCNc1nc(NCc2ccccc2)nc(SCC(N)=O)n1 | -9 | . | 1.0 | -1 | 78%
COC(=O)c1ccccc1N=Nc1c(N)n[nH]c1N | 0 | . | -7.4 | . | -11%
CCOC(=O)CC(=O)NC(CC(=O)OC)c1ccc(C(C)C)cc1 (stereo not drawn) | 7 | . | 2.1 | 2 | 4%
O=Nc1c(O)n(Cc2ccc(Cl)cc2)c2ccccc12 | -5 | -26 | 11 | 10 | -4%
CC(=O)OCC(=O)[C@@]12OC3(CCCC3)O[C@@H]1C[C@H]1[C@@H]3CCC4=CC(=O)C=C[C@]4(C)[C@@]3(F)[C@@H](O)C[C@@]12C | -3 | -30 | 3.8 | 3 | -9%
COc1ccc(-c2csc(NC(=O)c3ccccc3NS(=O)(=O)c3ccc(F)c(F)c3)n2)cc1 | -5 | . | 21 | -33 | 8%
CCN1CCN(C(c2cccs2)C(C)NC(=S)Nc2cccc(C)c2C)CC1 (stereo not drawn) | 4 | . | -5.1 | . | -1%
O=C(Nc1cccc(-c2cn3cccnc3n2)c1)c1cccs1 | 14 | -8 | -3.0 | -2 | -1%
CN(C)C(=O)N1CCN(c2nc(-c3ccccc3)cs2)CC1 | 5 | . | 1.1 | . | .
CC(Oc1ccc(Br)cc1)C(=O)Nc1ccc(S(=O)(=O)Nc2nccs2)cc1 (stereo not drawn) | 1 | . | 6.5 | . | .
N#Cc1ccsc1NC(=O)C1CCN(S(=O)(=O)c2cccs2)CC1 | 2 | . | -0.8 | . | .
C=CCOc1nc2c(c(=O)n(Cc3ccc(Cl)cc3)c(=O)n2C)n1C | 1 | -6 | -0.2 | 3 | 9%
Cc1ccc(-c2nc(CN(Cc3c(C)nn(C)c3C)C(C)C)c(C)o2)o1 | 2 | . | -0.7 | -3 | -3%
CCOc1ccc(C2SCC(=O)Nc3c2c(C)nn3C2CCOC(C)(C)C2)cc1 (stereo not drawn) | -1 | -11 | 1.1 | 2 | -3%

Fetched one by one from the list above (two):
SMILES | Mtb betalactam | YopH inh | RecA splice inh | Arbovirus inh | Mtb H37Rv | others
CCOc1ccc(C2SCC(=O)Nc3c2c(C)nn3C2CCOC(C)(C)C2)cc1 (stereo not drawn) | -1 | -11 | 1.1 | 2 | -3%
O=Nc1c(O)n(Cc2ccc(Cl)cc2)c2ccccc12 | -5 | -26 | 11 | 10 | -4%

The listing picks up with the 4 entries that preceded the break.
SMILES | Mtb betalactam | YopH inh | RecA splice inh | Arbovirus inh | Mtb H37Rv | others
N#Cc1ccsc1NC(=O)C1CCN(S(=O)(=O)c2cccs2)CC1 | 2 | . | -0.8 | . | .
C=CCOc1nc2c(c(=O)n(Cc3ccc(Cl)cc3)c(=O)n2C)n1C | 1 | -6 | -0.2 | 3 | 9%
Cc1ccc(-c2nc(CN(Cc3c(C)nn(C)c3C)C(C)C)c(C)o2)o1 | 2 | . | -0.7 | -3 | -3%
CCOc1ccc(C2SCC(=O)Nc3c2c(C)nn3C2CCOC(C)(C)C2)cc1 (stereo not drawn) | -1 | -11 | 1.1 | 2 | -3%
CCCN(CCC)CCCNc1ccc(C(=O)Nc2cccc(OC)c2)cc1[N+](=O)[O-] | -5 | . | 1.5 | -13 | 1%
COCC(=O)N1CCC(Oc2ccc(C(=O)NCc3cc(C(C)C)no3)cc2)CC1 | -1 | . | -1.7 | . | .
COc1cc2c(cc1OC)-c1cc(NC3CCCCCC3)nc(=O)n1CC2 | 5 | 4 | 3.7 | -6 | -2%
COc1nccc(C(F)(F)F)c1C(=O)NC(=O)Nc1ccccc1 | 0 | . | -4.8 | . | -10%
Cc1cc(C(=O)N/N=C\C(Br)=C\c2ccccc2)c(C)o1 | 8 | . | 9.8 | -2 | 52%
COc1ccc(NS(=O)(=O)c2cc(NC(=O)c3cnc(C)cn3)ccc2N2CCCCC2)cc1 | 3 | -20 | 7.1 | -29 | 18%
N#CCCn1nc(-c2ccc(Cl)cc2)cc1Nc1ccccc1NC(=O)C(F)(F)F | 7 | -2 | 5.2 | -12 | 13%
COc1ccc(N2Cc3cccc(C(=O)N4CCN(C(=O)c5ccco5)CC4)c3C2=O)cc1 | 0 | -7 | 4.8 | 6 | -1% | Arbovirus inh repeat=10
Cc1csc2nc(CSc3ccc(Cl)cc3)cn12 | -3 | -4 | 6.9 | -2 | -4%
OC(c1cccc(Cl)c1)c1nccc2ccccc12 (stereo not drawn) | 1 | . | 7.4 | . | .
C=CCNCCOCCOc1ccccc1-c1ccccc1 | -6 | . | 0.6 | -21 | -5%
COc1cccc(CNn2cn[nH]c2=S)c1OCc1ccccc1 | 6 | . | 1.9 | -1 | -9%
Cc1oc(-c2ccc(Cl)cc2)[n+]([O-])c1C | -3 | -6 | 0.3 | -5 | -8%
COc1ccc(-n2nc(C(=O)O)c3ccccc3c2=O)cc1 | . | -36 | -1.8 | 6 | -3%
Cc1[nH][nH]c(=O)c1C(c1c(C)[nH][nH]c1=O)c1cn(Cc2ccc(Cl)c(Cl)c2)c2ccccc12 | 4 | -14 | 0.9 | 15 | 6%
CCCN=C1NC(=O)C(CC(=O)NCCc2ccc(OC)c(OC)c2)S1 (stereo not drawn) | 1 | -17 | -0.6 | -7 | -6%
COc1ccccc1C(=O)NNC(=O)C(=O)NC(C)(C)C | 43 | . | 0.2 | 7 | -1%
CC(=O)c1ccc(NC(=O)CSc2nc(Nc3ccccc3)nc(N3CCOCC3)n2)cc1 | -14 | . | -0.8 | . | .
CCOC(=O)N1CCN(S(=O)(=O)c2cc(-c3nn4c(C)nnc4c4ccccc34)ccc2C)CC1 | 3 | 12 | 0.1 | -4 | 2%
CCN1C(=O)C(CC(=O)NCc2ccc(Cl)cc2)N(CC)C1=O (stereo not drawn) | -7 | -12 | -0.5 | 10 | -1%
O=C(O)C1CCCN1C(=O)NC1CCCCC1 (stereo not drawn) | 0 | . | -1.5 | . | .
CCCCC(=O)/C=C/n1c(=S)oc2ccccc21 | 98 | -25 | 19 | -43 | 6%
O=S(=O)(Cc1ccccc1)Nc1ccc(F)cc1 | 1 | . | -1.3 | . | .
CS(=O)(=O)N1CCN(c2ccccc2[N+](=O)[O-])CC1 | -9 | . | -1.4 | 2 | 2%
CC(=O)Nc1ccc(NC(=O)c2cccc3c2-c2ccccc2C3=O)cc1 | 0 | . | -3.5 | 21 | 4%
CCC(=O)NC(Nc1sc2c(c1C(=O)OC)CCCC2)(C(F)(F)F)C(F)(F)F | -4 | 13 | -0.4 | -1 | -16%
COC(=O)c1ccccc1OCCCN(C)C | 7 | 3 | -2.4 | -5 | 2%
COC(=O)c1ccccc1NC1=C/C(=N\S(=O)(=O)c2cccs2)c2ccccc2C1=O | 96 | 41 | 81* | -44 | -3%
Clc1ccccc1-c1nn2c(-c3ccccn3)nnc2s1 | 3 | -33 | 2.6 | -11 | -5%
COc1cc(/C=C(\C#N)C(=O)NCC2CCCO2)c([N+](=O)[O-])cc1OC (stereo not drawn) | ? | -19 | -13 | -4 | -10%

Structures from the list above with a COOH group, in the order listed:
SMILES | Mtb betalactam | YopH inh | RecA splice inh | Arbovirus inh | Mtb H37Rv | others
COc1ccc(-n2nc(C(=O)O)c3ccccc3c2=O)cc1 | . | -36 | -1.8 | 6 | -3%
O=C(O)C1CCCN1C(=O)NC1CCCCC1 (stereo not drawn) | 0 | . | -1.5 | . | .

(next part)
SMILES | Mtb betalactam | YopH inh | RecA splice inh | Arbovirus inh | Mtb H37Rv | others
COC(=O)c1ccc(CC(C(=O)c2ccccc2)N(C)C)cc1 (stereo not drawn) | -1 | . | 2.9 | . | .
COc1cc(NC(=O)N[C@@H](Cc2c[nH]c3ccccc23)C(=O)O)c(C(=O)O)cc1OC | 12 | . | 1.7 | . | .
Cc1cc2ccccn2c1C(=O)c1ccc(S(=O)(=O)N(C)C)cc1 | 0 | . | -1.8 | -3 | -1%
O=C(CSc1nncn1-c1cccnc1)Nc1cccc(C(F)(F)F)c1 | -9 | . | -0.6 | . | .
Cc1c(NC(=O)C(C)OC(=O)c2ncc(Cl)c(Cl)c2Cl)c(=O)n(-c2ccccc2)n1C (stereo not drawn) | 0 | . | 0.1 | . | .
Cc1ccc(S(=O)(=O)NCC(=O)OCC(=O)c2ccc(Br)s2)cc1 | 0 | -19 | 4.1 | 2 | -15%
Cn1cnnc1SCC(=O)c1cc2ccccc2o1 | -1 | . | 2.8 | 16 | 0%
COc1ccc(C(=O)NCc2cn3ccsc3n2)cc1OC | -2 | -23 | 0.1 | 0 | 0% | Arbovirus inh repeat=-1
COc1ccccc1S(=O)(=O)CC(O)COc1ccccc1Cl (stereo not drawn) | -7 | . | -1.3 | . | .
COc1ccccc1CNC(=O)CCN1C(=O)c2ccccc2C1=O | 0 | . | -0.7 | . | .
Cc1ccc(C(=O)COC(=O)c2cn3ccccc3n2)cc1 | -2 | . | . | 9 | -2%
O=C(NCC(c1cccnc1)N1CCN(c2ccccc2F)CC1)c1cccc(Cl)c1 (stereo not drawn) | -12 | -18 | 3.2 | -3 | 1%
CC1CCN(C(=O)C2CCN(C(=O)c3cc4sccc4n3Cc3ccc(F)cc3)CC2)CC1 | -4 | 9 | 1.5 | -2 | 2%
O=C(NCC1CCOCC1)c1cc(COc2ccc(F)cc2F)on1 | 2 | . | -0.2 | . | .
COc1ccc(OC(C)C(=O)Nc2ccccc2F)cc1 (stereo not drawn) | -2 | . | 2.0 | 2 | -2%
CC(C)c1csc(CN2CCN(Cc3ccccc3)C(CCO)C2)n1 (stereo not drawn) | -10 | . | -2.1 | 0 | -1%
Cc1cc(C(C)(C)C)cc(C)c1S(=O)(=O)N1CC(=O)Nc2ccccc21 | -6 | . | 2.9 | . | 0%
COC(=O)c1cc(Br)c(=O)n(-c2nccs2)c1 | -7 | -8 | 0.5 | -4 | -13%
O=c1c([N+](=O)[O-])c[nH]c2ccccc12 | 0 | -16 | 1.7 | 0 | -1%
Cc1ccccc1OC(=O)C1C(c2ccccc2)C(C(=O)O)C1c1ccccc1 (stereo not drawn) | -9 | -31 | 1.7 | 17 | 7%
COc1cc(C)nc(Oc2ccc(OCCOc3ccc(C)cc3)nn2)n1 | -14 | -29 | -1.6 | 4 | -8%
O=C(OCn1nnc2ccccc2c1=O)C12CC3CC(CC(O)(C3)C1)C2 | -9 | . | 2.6 | 2 | -7%
COc1ccc2c(CC(=O)OCC(=O)NC(N)=O)coc2c1 | -2 | . | . | . | -6%
CCCCNc1nc2ccccc2nc1Cl | -8 | . | -2.3 | -6 | 1%
O=[N+]([O-])c1cccc(S(=O)(=O)N2CCc3ccccc3C2)c1 | -2 | . | -1.2 | . | .
CCc1cccc2c(C(=O)C(F)(F)F)cn(CC(=O)N3CCOCC3)c12 | -9 | . | 1.0 | 12 | 1%
CCOC(=O)CC(NC(=O)C1c2ccccc2Oc2ccccc21)c1ccccc1Cl (stereo not drawn) | 2 | -16 | 0.2 | -10 | 0%
C=CCNC(=O)CC1C(=O)NCCN1Cc1ccc(-c2ccccc2)cc1 (stereo not drawn) | -6 | . | 1.0 | -3 | 3%
CCN(CC)CCCNC(=O)Cn1ncc2c(=O)oc3ccc(C)cc3c21 | -4 | -34 | -0.7 | 13 | -1% | Arbovirus inh repeat=4
COc1ccccc1/C=C/C(=O)NCc1ccccn1 | -2 | . | -0.6 | 4 | -4%
CCOC(=O)c1ccc(NC(=S)N2CCCC(C)C2)cc1 (stereo not drawn) | 1 | . | 0.3 | 0 | 75%
COc1ccc(C(=O)NCC(=O)OCC(=O)c2ccc(Cl)cc2)cc1OC | -9 | . | 2.8 | 1 | -17%
O=C(N/C(=C\c1ccco1)C(=O)N1CCOCC1)c1ccc([N+](=O)[O-])cc1 | -5 | . | -1.1 | . | .
COCC(=O)Nc1ccc(S(=O)(=O)Nc2cc(C)nc(C)n2)cc1 | -3 | -6 | -1.1 | 7 | -4%
CC(C)CC(=O)Nc1cc([N+](=O)[O-])ccc1Cl | -5 | -29 | 1.0 | 6 | -1%
CC12CC(NC(=O)N1c1cccc(C(=O)NCc3ccccn3)c1)c1ccccc1O2 (stereo not drawn) | -6 | . | -0.8 | . | .
COc1ccc(C(NC(=O)/C=C\c2ccco2)c2ccc(OC)c(OC)c2)cc1 (stereo not drawn) | -20 | -18 | -3.4 | 1 | -2%
Cc1nc2ccccc2c(=O)n1/N=C/c1cn[nH]c1-c1ccccc1 | -8 | . | 0.5 | . | -9%
CCCSc1cc(NCCOC(=O)CCC)c([N+](=O)[O-])c2nonc12 | 100 | -29 | 60* | -12 | 57%
Cc1ccc(NC(=O)CN2CCc3ccccc3C2)cc1F | -2 | . | 0.4 | . | -6%
Cc1ccc(NC(=O)C(=O)NCc2ccc(/C=C(/C#N)C(=O)NCc3cccnc3)o2)cc1C | -2 | -22 | -1.5 | 0 | 0%
CNC(=O)c1c(C)nn(-c2ccc(F)c(Cl)c2)c1-c1cc(C)on1 | -4 | . | -0.2 | . | -2%
